From PubChem
AID504770 = E. coli YBA685 growth inhibition, screen for V. cholerae RctB inhibitors; E. coli YBA685 rctB-dependent plasmid, OD600 growth, 3 h; stronger effect = lower value; z-score (test concentration not listed); hit rate 0.27% among 130,000;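 active = z-score under -2 on both plates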;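 also: wells of about 30 µL received 100 nL stock; score is relative to mean and SD of the test wells; the first replicate is given; strong numbers were not always called active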
Ba CapD inh = blocks the Bacillus anthracis CapD enzyme; purified CapD enzyme, fluorescence intensity read-out; stronger effect = lower value; some hits fall short of the stated cut; z-score (no concentration beside the values); hit rate 0.23% among 140,000;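 active = z-score under -4 in either of two replicates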;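 also: stock transfer was 100 nL into about 40 µL; score is relative to mean and spread of the plate; one replicate is shown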
* hit, by the source's call; · = not tested or not shown. These rows are one share of the data, so the mix of outcomes need not match the whole.

SMILES	AID504770	Ba CapD inh
OC1CSC(=S)N1Cc1ccco1 (centres undefined)	0.1	-0.14
Cc1ccc(C)c(-n2ccn(CC#N)c(=O)c2=O)c1	-0.8	·
O=C(O)c1cc(C2CCCCC2)no1	-0.8	·
CC(C)[C@@H](C)/C=C/[C@@H](C)C1CC[C@H]2/C(=C/C=C3\C[C@@H](O)CC[C@@H]3C)CCC[C@]12C (some centres undefined)	·	-0.18
CCOC(=O)N1CCN(S(=O)(=O)c2cc(Cl)c(C)cc2OCC)CC1	-0.55	0.045
O=C(CN1C(=O)C2C3C=CC(C3)C2C1=O)Nc1nc(-c2ccccc2)cs1 (centres undefined)	0.4	0.27
Cc1ccc(S(=O)(=O)c2nc(-c3ccccc3)oc2NCCN2CCOCC2)cc1	2.5	2.8
O=C1CSC2(C(=O)N(CN3CCN(c4ccccc4)CC3)c3ccccc32)N1c1cccc(C(F)(F)F)c1 (centres undefined)	·	-0.22
O=C(NC(=S)NCc1ccco1)c1ccc(-c2ccccc2)cc1	-0.45	-0.025
CCc1cccc(NC(=O)C(CC(C)C)NC(=O)C2CCCCC2)c1 (centres undefined)	0	-0.92
COc1ccc(NC(=O)c2cc3c(-c4ccccc4)nn(C)c3s2)cc1	·	-0.45
CC1=NN(c2ccc(C)c(C)c2)C(=O)/C1=C/c1ccc(N2CCOCC2)cc1	-0.25	0.005
COc1ccc(S(=O)(=O)Nc2ccc(C(=O)Nc3nccs3)cc2)cc1	-1.1	·
CC1Cc2ccccc2N1C(=O)c1nc2ccccc2s1 (centres undefined)	-0.95	·
CCOC(=O)NN1C(=O)c2ccccc2NC12CCCCC2	1.4	86
Cc1cc(Cl)ccc1NNC(=O)c1snnc1C	0.8	-0.13
Cc1ccc(OCCN2CCN(c3cc(C)c(C#N)c4nc5ccccc5n34)CC2)cc1	0.2	-0.43
Cc1ccc(-c2c(C(=O)NCCN3CCN(c4ccccc4)CC3)oc(=O)c3ccccc23)cc1	·	-0.46
Cn1cnc(S(=O)(=O)NCc2csc3ccc(Cl)cc23)c1	-0.6	0.99
CCOC(=O)c1cnc(Nc2nc3ccccc3s2)nc1C	-0.25	0.46
Cc1ccc(N=C(NOCc2cccc([N+](=O)[O-])c2)c2nonc2N)cc1	·	-0.77
O=C(NC1CCCC1)c1cc2sccc2n1Cc1ccccc1	1.1	·
NC(=O)NCc1ccc2[nH]c3c(c2c1)CCCC3	-0.75	0.51
CCN(CC)CCNC1CCN(C)CC1	0	-0.06
O=C(Nc1ccc(Cl)cc1)c1cc2ccccc2o1	-0.95	0.15
O=C(c1ccc([N+](=O)[O-])cc1)N1CCN(Cc2ccccc2)CC1	·	-0.005
FC(F)(F)c1cc(Br)ccc1/C=C/c1noc(CN2CCSCC2)n1	0.7	0.59
CCN1CCc2c(OCC(=O)N3CCCc4ccccc43)cccc2C1=O	-0.8	0.2
O=C(CN1N=C(c2ccccc2)CCC1=O)NC1CCCC1	-0.8	-0.8
COc1cc2ccccc2c(=O)c2ccsc12	-0.2	4.8
COc1ccc(CN2CCC(=O)NC2=O)cc1C	1.2	-0.29
OC12CCCCC1C1(O)CCCCC1C1(CCCCC1)O2 (centres undefined)	·	-0.48
COc1cccc(CCOC(=O)NC2CCN(Cc3c(C)nn(-c4ccccc4)c3C)C2)c1 (centres undefined)	·	0.39
CCc1ccc(OCC(=O)N2CCCCC2)cc1	0.8	·
O=C(OCCN1C(=O)c2ccccc2C1=O)c1ccc(S(=O)(=O)NCc2ccco2)cc1	-0.1	·
N#CC1=C(N)Oc2n[nH]c(-c3cccc([N+](=O)[O-])c3)c2C12C(=O)Nc1ccc(F)cc12 (centres undefined)	·	-0.12
CN(C)CCN(C)Cc1cccc(C(F)(F)F)c1	-0.65	0.055
CC(c1ccccc1)C1CC(=O)N(Cc2ccco2)C1=O (centres undefined)	2.2	0.28
COc1ccc(N2CCN(C(=O)c3sc4nc(C)nc(N5CCC(C)CC5)c4c3C)CC2)cc1	·	-0.62
O=C1Cc2cccc3cccc1c23	0.05	62
O=C(O)CSc1nc2cc(Cl)ccc2n1Cc1ccccc1	-0.1	0.68
CCN(CC(=O)NC1CCS(=O)(=O)C1)C(=O)c1cc(C)on1 (centres undefined)	0.05	·
Cc1cc(-n2c(C)cc(C(=O)CSc3ccc4c(c3)OCCO4)c2C)no1	0	·
CC(Sc1ccccc1F)C(=O)Nc1ccc(S(N)(=O)=O)cc1 (centres undefined)	-0.05	·
CC1CN(C(=O)COC(=O)C23CC4CC(CC(C4)C2)C3)CC(C)O1 (centres undefined)	0.25	-0.67
COc1ccc(C)cc1S(=O)(=O)NC(C)(C)C	1.8	0.54
CCCN1CCC[C@@H]2Cc3[nH]ncc3C[C@H]21	·	0
Cc1c(C(=O)Nc2ccc(C(=O)O)cc2)cnn1C	-0.6	-0.17
CC(=O)Nc1c(C(=O)c2ccc(F)cc2)oc2ccccc12	2.5	·
CCOC(=O)COc1ccc2c(=O)c(-c3cscn3)coc2c1	0.3	·
CCOC(=O)C(O)(C1C(=O)CC(C)(C)CC1=O)C(F)(F)F (centres undefined)	0.65	0.67
COc1ccc(N(C)C(=O)c2ccc3c(c2)nnn3C)cc1	-0.55	·
CC(OC(=O)Cn1cc(C(F)(F)F)ccc1=O)C(=O)Nc1ccc2c(c1)OCO2 (centres undefined)	0.75	·
O=C(Nn1c(-c2cccc([N+](=O)[O-])c2)nc2ccccc2c1=O)c1ccc(Br)cc1	·	0.085
CSc1nc(SC)c(C#N)c(-c2cccs2)n1	0.15	-0.36
O=C(NCCCO)c1cc2ccccc2oc1=O	-0.65	46

Carrying on:
SMILES	AID504770	Ba CapD inh
O=C(CCCc1nc2ccccc2s1)NC1CCOC1=O (centres undefined)	-0.7	·
O=C1C2C(c3cccc(Br)c3)OC3(C(=O)c4ccccc4C3=O)C2C(=O)N1c1ccc([N+](=O)[O-])cc1 (centres undefined)	·	-0.33
Cc1c(C(=O)N2CCOCC2)c(S(=O)(=O)NCCc2ccc(Cl)cc2)c(C)n1C	0.75	-0.6
CN1C(=C(C#N)C(=O)COc2ccc(F)cc2Cl)N(C)c2ccccc21	0	·
Cc1csc(N(C(=O)Cn2nnc3ccccc32)c2ccccc2)n1	-0.05	·
COC(=O)C1=C(C)NC2=C(C(=O)CC(c3ccc(OC)c(OC)c3)C2)C1c1ccccc1Br (centres undefined)	·	1.5
Cc1ccc(C)c(NCc2cc(=O)n3ccsc3n2)c1	-0.05	·
Cc1ccccc1Cc1c(C)[nH]c2nc3ccccc3n2c1=O	0.4	·

Rewritten with each value named: two of the compounds above.
Cc1ccc(C)c(NCc2cc(=O)n3ccsc3n2)c1
- AID504770: -0.05
- Ba CapD inh: ·
Cc1ccccc1Cc1c(C)[nH]c2nc3ccccc3n2c1=O
- AID504770: 0.4
- Ba CapD inh: ·

New compounds follow
SMILES	AID504770	Ba CapD inh
COc1cc(CNCCN2CCOCC2)cc(Cl)c1OCC(N)=O	-2.4	·
C=C1OC(=O)OC1(C)CCC1=C(C)CCCC1(C)C (centres undefined)	·	-0.27
O=C(COc1cccc2c(OCC(=O)c3ccccc3)cccc12)c1ccccc1	·	-0.4
O=C(c1csc2c1CCCC2)N1CCCCC1	1.4	-0.4
O=C(CCN1C(=O)/C(=C\c2ccco2)SC1=S)Nc1ccccc1	-0.85	·
O=S(=O)(NCc1ccccc1)c1ccc(N2CCCCS2(=O)=O)cc1	-0.2	3
NNc1nc(C(F)(F)F)nc2c1cnn2Cc1ccccc1	0	·
CC1(C)CC(=O)/C(=N/Nc2ccccc2)CO1	-0.8	-4*
O=C(O)C1=C(Nc2ccccc2)OCC1=O	0.05	·
Cc1sc(NC(=O)CSCC(=O)N2CCCCC2)nc1-c1ccccc1	-0.2	-0.8
COc1ccc(C(C)=O)cc1CSc1nc(NCC2CCCO2)c2ccccc2n1 (centres undefined)	·	0.055
Fc1ccc(C2=NN(C(=S)NCc3ccccc3)CCC2)cc1	0.2	-0.075
CC1OCC/C1=N/OC(=O)Nc1c(Cl)cccc1Cl (centres undefined)	-1.1	0.01
CCN(CC)S(=O)(=O)c1ccc2nnn(OCC(=O)NCc3ccccc3OC)c2c1	-0.45	·
CC1CCN(S(=O)(=O)c2ccccc2)CC1	1.2	·
O=C(COC(=O)CSc1nc2ccccc2o1)NC1CC1	0.35	·

In another format: results already given
O=C(O)C1=C(Nc2ccccc2)OCC1=O
  AID504770: 0.05 | Ba CapD inh: ·

Cc1sc(NC(=O)CSCC(=O)N2CCCCC2)nc1-c1ccccc1
  AID504770: -0.2 | Ba CapD inh: -0.8

COc1ccc(C(C)=O)cc1CSc1nc(NCC2CCCO2)c2ccccc2n1 (centres undefined)
  AID504770: · | Ba CapD inh: 0.055

Fc1ccc(C2=NN(C(=S)NCc3ccccc3)CCC2)cc1
  AID504770: 0.2 | Ba CapD inh: -0.075

The list goes on:
SMILES	AID504770	Ba CapD inh
Cc1onc(-c2c(F)cccc2Cl)c1C(=O)N1CC(Oc2ccc(Cl)cc2)C1	-1	0.13
FC(F)(F)c1ccc(CSc2nccc(-c3cccnc3)n2)cc1	-0.4	0.49
O=C1CCCc2oc(=O)ccc21	0.6	·
O=C(O)CC1(CC(=O)N2CCN(c3ccccc3)CC2)CCCC1	0.1	·
CCOC(=O)c1cc(NC(=O)C2C3C=CC(O3)C2C(=O)O)cc(C(=O)OCC)c1 (centres undefined)	-2.4	0.45
NS(=O)(=O)c1ccc(Sc2ccccc2)s1	·	-0.43
CCN1C(=O)C2(/C(=C(/O)c3ccc(F)cc3)C(=O)C(=O)N2CCN2CCOCC2)c2ccccc21 (centres undefined)	-0.7	-0.47
COC(=O)Cc1[nH]n(-c2ccc(OC)cc2)c(=O)c1C(C)=NC(C)(C)C	-0.15	·
CCOC(=O)C(C#N)=C1C=CN(c2ccccc2)C=C1	-0.55	·
CCC(=O)c1ccc(OC(=O)c2cc3cc(Br)ccc3oc2=O)cc1	0.45	0.4
Cc1cc2cc(CNC(=O)c3cccs3)ccc2[nH]1	1	-0.92
Cc1ccc(CC(C#N)Sc2nnc(-c3ccc(F)cc3)n2CC2CCCO2)cc1 (centres undefined)	1	·
CC(NC=C1C(=O)OC(C)(C)OC1=O)C(=O)O (centres undefined)	0	1.8
COc1ccc(OC)c(C2C(C#N)=C(N)Oc3cc(C)oc(=O)c32)c1 (centres undefined)	-0.6	0.83
COc1ccc(C2C3=C(CC(C)(C)CC3=O)OC3=C2C(=O)CC(C)(C)C3)cc1	·	-0.7
CCOc1cc(C2Nc3ccc4ccccc4c3C3=C2C(=O)CC(C)(C)C3)ccc1OCc1ccccc1F (centres undefined)	·	2.8
CC(SCc1ccccc1)C(=O)NCc1ccccn1 (centres undefined)	-1.1	·
O=C(c1ccc(-n2cccn2)cc1)N1CCN(c2ncccc2C(F)(F)F)CC1	-1.1	1.3
O=C(NCCSCCOC(=O)N1CCN(Cc2cc3ccccc3o2)CC1)c1sc2ccccc2c1Cl	·	0.21
CCOC(=O)C(C)Oc1ccc2c(=O)c(-c3ccc(OC)c(OC)c3)c(C(F)(F)F)oc2c1 (centres undefined)	·	0.65
COCCNC(=O)c1cc(S(=O)(=O)N2CCOCC2)ccc1SCc1cccc(OC)c1OC	·	0.67
CCOC(=O)C(C)Oc1cccc2c(=O)n(CC(=O)Nc3ccc4c(c3)OCCO4)ccc12 (centres undefined)	-0.9	·
CCOC(=O)CC1(c2ccccc2)CCOC(C)(C)C1 (centres undefined)	1.9	0.12
Cc1ccc(-c2cc3nc(C(F)(F)F)cc(C(F)(F)F)n3n2)cc1	-1.1	-0.26
Cc1noc(-c2ccccc2)c1NC(=O)Nc1ccccc1	-0.5	0.33
OCC1OC(Oc2cccc3ccccc23)C(O)C(O)C1O (centres undefined)	·	0.39
CCOC(=O)C1=C(N)OC2=C(C(=O)CC(c3ccccc3)C2)C1c1cccnc1 (centres undefined)	·	-0.09
CN(C)S(=O)(=O)c1ccc(-c2csc(=Nc3ccccc3)n2CCN2CCOCC2)cc1	-0.65	·
Cc1cc(=O)oc2ccc(OCC(=O)N3CCOCC3)cc12	0.6	32
COc1cc2nc(C3CCC3)n(NC(=O)c3ccccc3C)c(=O)c2cc1OC	0.95	·
Clc1cc(CNCc2ccccc2CN2CCOCC2)cc2c1OCCCO2	-2	·
CCCCCCOc1ccc(S(C)(=O)=O)cc1NC(=O)C(C)(C)C	·	-0.14
COc1ccc(S(=O)(=O)N2CCc3ccccc32)cc1C(=O)NC(C)(C)C	-0.45	·
COc1ccccc1N1CCN(C(=O)C(C)Oc2ccnc3c(C)ccc(C)c23)CC1 (centres undefined)	-0.65	0.26
COc1ccc(Oc2c(N3CCOCC3)cnn(-c3ccc(C)cc3)c2=O)cc1	·	0.11
CC1(C)CC(=O)C2=C(C1)NC1=C(C(=O)c3ccccc31)C2c1ccc([N+](=O)[O-])o1 (centres undefined)	·	-0.47
CC(C)=CC1C(C(=O)Nc2ccc(Cl)cn2)C1(C)C (centres undefined)	0.75	·
O=C(ON=C1CCC2(CC1)OCCO2)c1cccc(C(F)(F)F)c1	0.1	0.82
